Assay outcomes from PubChem BioAssay.
Yeast UUG start = modulators of start codon recognition fidelity in yeast; S. cerevisiae UUG-firefly luciferase reporter, luminescence/redox ratio; AID 602363; 350,000 tested, 0.13% active; activity score, % at 18.7 µM;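 active = replicate mean at a twofold rise or more, about +100% in these data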;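 also: firefly luciferase made from a UUG start codon reports start codon fidelity; reporter light over untreated wells divided by growth signal over untreated wells; some hits fall short of that in this replicate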
eIF4H FP inh = inhibitors of RNA binding by human eIF4H; Q15056; eIF4H fluorescence polarization binding assay; inhibition, % at 35 µM; 290,000 tested, 0.94% active; AID 2012;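 active = 50% or more with normal probe brightness, or confirmed in later tests; inconclusive = above 50% with abnormal brightness, or retests that disagree; inactive = below 50% or failed in later tests; about a fifth of its hits are not listed in these tables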;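 also: calls also rest on retests at 20 µM and on dose response follow-up; 0% = protein and probe with vehicle and 100% = probe without protein; strong numbers were not always called active; many hits fall short of the cut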
CSC inhib = blocks cancer stem cells; cancer stem cell-like cells viability, luminescence; inhibition, % at 7.5 µM; 300,000 tested, 1.1% active;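 active = mean at 75% or more and at least half the replicates too; inconclusive = mean and replicates disagree; tested in HMLE shEcad cells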;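 also: 0% = median of negative and 100% = median of positive control wells; the first replicate is given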
MT1-MMP act inh = MT1-MMP (human) activation inhibition; P50281; HT1080 RFP-PRO-GFP cells, GFP/RFP ratio fluorescence, overnight; percent of plate control window, DMSO zero; GFP/RFP ratio change, % at 20 µM; 360,000 tested, 0.061% active; AID 651647;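 active = GFP/RFP ratio change of at least 30% with cell ATP level not reduced by more than half and red fluorescence within 50% of control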; also: strong numbers were not always called active
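Assay system – RFP-PRO-GFP reporter HT1080 cells · Compound dosing – single dose of 20 µM compound, 1% DMSO final · Incubation – overnight compound exposure at 37 °C · Measure – GFP/RFP fluorescence ratio · Benchmarks – DMSO wells and RFP-L50D-GFP cells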
Rce1 inhib = blocks yeast Ras-converting enzyme. Q03530. yeast membranes, quenched prenylated peptide cleavage fluorescence. calls only. 290,000 tested, 0.27% active;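 active = fall in fluorescence gain of 50% or more versus controls, with final raw signal at or below 3038400; inconclusive = same 50% fall but final raw signal above 3038400; inactive = fall in fluorescence gain under 50%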;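 also: plate controls were neutral control wells for no effect and wells lacking membranes for full effect; tested at 10 µM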
Env fusion inh = blocks HIV Env-driven cell-cell fusion; HeLa-JRFL Env/CEM21 cell fusion, luciferase; inhibition, % at 12.3 µM; 360,000 tested, 1.1% active; AID 651610;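 active = mean replicate inhibition score of at least 50 and every replicate individually at or above 50; inconclusive = only one of the two criteria met; inactive = mean below 50 and not all replicates reaching 50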;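 also: 0% = plate neutral controls and 100% = maraviroc near 300 nM; one replicate is shown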
PABP polyA inh = PABP-poly(A) binding inhibition | P11940 | PABP-poly(A) RNA binding, fluorescence polarization | 290,000 tested, 1% active | inhibition, % at 35 µM;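 active = 50% or more with normal probe brightness, or confirmed in later tests; inconclusive = above 50% with abnormal brightness, or retests that disagree; inactive = below 50% or failed in later tests; about a fifth of its hits are not listed in these tables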;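 also: calls also rest on retests at 20 µM and on dose response follow-up; controls were probe without protein and protein plus probe with vehicle; some compounds called inactive have numbers as strong as hits; many hits fall short of the cut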
Target sequence (P11940 whole entry, looked up): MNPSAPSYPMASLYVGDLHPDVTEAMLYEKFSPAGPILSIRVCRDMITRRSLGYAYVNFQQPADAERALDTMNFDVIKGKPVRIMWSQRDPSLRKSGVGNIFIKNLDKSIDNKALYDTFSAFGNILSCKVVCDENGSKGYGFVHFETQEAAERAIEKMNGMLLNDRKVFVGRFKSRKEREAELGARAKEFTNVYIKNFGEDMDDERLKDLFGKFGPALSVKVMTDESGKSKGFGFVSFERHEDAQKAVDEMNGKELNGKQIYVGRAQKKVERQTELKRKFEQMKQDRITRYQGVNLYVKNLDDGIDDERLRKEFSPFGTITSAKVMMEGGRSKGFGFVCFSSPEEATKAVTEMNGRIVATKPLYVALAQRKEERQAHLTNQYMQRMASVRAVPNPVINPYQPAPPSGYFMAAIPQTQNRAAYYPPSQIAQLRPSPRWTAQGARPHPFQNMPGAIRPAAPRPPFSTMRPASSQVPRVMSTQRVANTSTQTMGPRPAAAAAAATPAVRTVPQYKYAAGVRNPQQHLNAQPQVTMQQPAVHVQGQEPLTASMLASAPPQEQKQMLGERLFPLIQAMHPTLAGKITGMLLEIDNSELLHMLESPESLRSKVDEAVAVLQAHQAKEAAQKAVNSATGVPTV
eIF4H FP inh retest = recorded beside eIF4H FP inh, whose call it bears; inhibition, %; compound at 20 µM; confirmation average;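 mean of two retest wells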
PABP polyA inh retest = second read-out of PABP polyA inh, no call of its own (marks repeat the call); inhibition, %; compound at 20 µM; confirmation repeats;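 mean of two retest wells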
MT1-MMP act inh RFP = second read-out of MT1-MMP act inh, no call of its own (marks repeat the call); RFP signal change, %; measured here: RFP expression control read;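 0 = vehicle wells; hits needed this value within 50% of zero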
The depositor's hits bear a star; i = inactive; ? = inconclusive; nt = no result given; + = active, no number. An excerpt, so the mix of outcomes need not match the whole.

SMILES | Yeast UUG start | eIF4H FP inh | CSC inhib | MT1-MMP act inh | MT1-MMP act inh RFP | Rce1 inhib | Env fusion inh | PABP polyA inh | others
CN(C)S(=O)(=O)c1ccc(S(=O)(=O)N2CCCC(C(=O)NC3CC3)C2)cc1 (stereo not given) | -14 | 3 | -8 | -1 | -10 | i | -2 | -1
N#Cc1cccc(NC(=O)COC(=O)Cn2nc(-c3ccccc3)oc2=O)c1 | -10 | nt | -11 | -3 | 0 | nt | nt | nt
O=C(c1oc2ccccc2c1N1CCCCC1)N1CCCCC1 | -10 | -13 | -12 | -5 | 2 | i | -31 | -7
CCC(=O)c1ccc(N2CCN(C(=O)c3ccccc3)CC2)c(F)c1 | nt | -6 | -6 | 6 | 10 | i | -16 | 3
COc1ccc(NC(=O)C/C(C)=N/NC(=O)C(=O)NC(C)C)c(OC)c1 | nt | 12 | 2 | -6 | 0 | i | -10 | -6
CCN(CC(=O)Nc1c(F)cccc1F)C(=O)CCN1C(=O)c2cccc([N+](=O)[O-])c2C1=O | 4 | nt | -3 | -3 | 3 | i | 4 | nt
CCNC(=O)C(Sc1ccccc1)c1ccccc1 (stereo not given) | -1 | 3 | -9 | 0 | 4 | i | -29 | -8
COC(=O)CSc1nc(N)c(C#N)c(CC(C)C)c1C#N | nt | 8 | 5 | nt | nt | i | -11 | 1
CCOC(=O)Cn1nnc(-c2ccccc2)n1 | 1 | 1 | -8 | 0 | 3 | i | -22 | 4
CCCCN(C/C=C/c1ccccc1OC)Cc1ccccc1 | -10 | 2 | -12 | -2 | 3 | i | 21 | 15
CCc1ccc(N2CC(C(=O)Nc3ccc(S(=O)(=O)NCC4CCCO4)cc3)CC2=O)cc1 (stereo not given) | -14 | 3 | nt | 6 | -3 | i | 16 | 21
Cc1cccc(NC2=NC(=S)N(c3ccc(C(=O)O)cc3)C23CCCCC3)c1 | -15 | -4 | -3 | 2 | 2 | i | nt | -4
Cc1cccc(CNc2ncnc3ccc(-c4cccnc4)cc23)c1 | -3 | nt | nt | 2 | -3 | nt | 18 | nt
Cc1ccc(SCC(=O)Nc2ccc(S(=O)(=O)Nc3ncccn3)cc2)cc1 | nt | 2 | -16 | 0 | 6 | i | 1 | 2
CCOC(=O)CN(C(=O)CSc1nnc(-c2cccc(OC)c2)o1)c1ccc(F)cc1 | -7 | -11 | -13 | 5 | -5 | i | 31 | 1
COc1ccc(COC(=O)N/C=C/c2ccco2)cc1 | -7 | 8 | 5 | -9 | 2 | i | -3 | 10
CSc1ccc(-c2nnn(CC(=O)NCc3ccccc3)n2)cc1 | -14 | -1 | 31 | 5 | 0 | i | nt | 1
Cc1ccc(C(=O)c2c3ccc(C(F)(F)F)cc3[n+]([O-])n2CCCC(N)=O)cc1 | -6 | nt | -10 | 8 | -3 | + | -33 | nt
CC1Cc2cc(/C(O)=C3/C(=O)C(=O)N(CCCn4ccnc4)C3c3cccnc3)ccc2O1 (stereo not given) | -18 | -7 | -20 | 0 | 4 | i | -27 | -1
COc1c(C)cc(C(=O)C2CCCN(C(=O)c3cccc(-n4cccn4)c3)C2)cc1C (stereo not given) | -3 | 2 | 11 | 5 | -2 | i | 8 | -11

Random excerpt: two entries already listed.
SMILES | Yeast UUG start | eIF4H FP inh | CSC inhib | MT1-MMP act inh | MT1-MMP act inh RFP | Rce1 inhib | Env fusion inh | PABP polyA inh | others
CCc1ccc(N2CC(C(=O)Nc3ccc(S(=O)(=O)NCC4CCCO4)cc3)CC2=O)cc1 (stereo not given) | -14 | 3 | nt | 6 | -3 | i | 16 | 21
O=C(c1oc2ccccc2c1N1CCCCC1)N1CCCCC1 | -10 | -13 | -12 | -5 | 2 | i | -31 | -7

Additional structures follow:
SMILES | Yeast UUG start | eIF4H FP inh | CSC inhib | MT1-MMP act inh | MT1-MMP act inh RFP | Rce1 inhib | Env fusion inh | PABP polyA inh | others
Cc1ccc(NC(=O)CSc2nc(NS(=O)(=O)c3ccc(C)cc3)cc(=O)[nH]2)cc1 | -13 | 3 | 0 | 9 | 5 | i | -10 | 15
CC(C)CN(CC(C)C)S(=O)(=O)N1CCC(C(=O)NCCc2ccc(Cl)cc2)CC1 | -8 | -9 | nt | 0 | -13 | i | nt | -2
CCCCN1C(=S)NC[C@@H]1c1ccccc1 | -26 | -3 | -6 | 0 | 0 | i | -213 | -4
Cc1cc(C)n(Cc2nc3ccccc3n2C)n1 | 6 | -3 | -17 | -3 | 2 | i | -36 | 2
CCCCCn1c(=O)[nH]c2cc(C(=O)NCc3ccccn3)ccc2c1=O | -15 | -15 | 5 | -2 | 0 | i | -1 | 10
Cc1cc(Cl)c(S(=O)(=O)NCc2ccncc2)cc1OCC(N)=O | -14 | 2 | 0 | 1 | -2 | i | 0 | 10
CC(C)CNc1cc(Cl)c(S(=O)(=O)NCC(C)C)cc1C(=O)O | -2 | -3 | 18 | 7 | 5 | i | nt | 13
CN(CC(=O)NCC(=O)Nc1ccc(F)cc1)C1CCS(=O)(=O)C1 (stereo not given) | -17 | nt | -4 | -3 | 1 | nt | 13 | nt
Cc1ccc(S(=O)(=O)N(C)CCCC(=O)N2CCN(C=O)CC2)cc1 | nt | 1 | nt | 4 | -3 | i | -23 | -2
O=C(NCCCN1CCOCC1)c1cc(C(=O)C2CCCCC2)c[nH]1 | -12 | 6 | -3 | 3 | 1 | i | -18 | ?
CN1CCN(C(=O)C2CC(c3c(F)cccc3Cl)=NO2)CC1 (stereo not given) | -1 | -4 | 0 | 3 | 1 | i | nt | 1
COC(=O)c1ccc(C(=O)OC)c(NC(=O)Nc2ccc3c(c2)OCO3)c1 | -15 | 3 | 0 | 0 | 5 | i | -40 | -10
COc1ccc(/C=N/NC(=O)c2ccccc2OC)cc1COc1ccc(C)cc1 | -17 | 0 | -18 | 0 | 2 | i | -48 | -8
Cc1ccc(NC(=O)/C(=C/c2cccc([N+](=O)[O-])c2)NC(=O)C2CCCCC2)cc1 | -15 | -12 | -5 | 2 | -1 | i | nt | -4
COC(=O)c1onc(-c2ccccc2)c1C(=O)OC | -17 | -5 | -4 | 0 | 5 | i | nt | 8
NSc1nc(N)c2nc(-c3ccccc3)c(-c3ccccc3)nc2n1 | -12 | -11 | nt | 3 | -6 | i | -35 | 6
Cc1sc2ncnc(SCC(=O)N3CCCCC3)c2c1C | -26 | -2 | 8 | 2 | -4 | i | 17 | -9
Cc1c(N(C)S(=O)(=O)c2cccc(C(=O)NCC3CCCO3)c2)c(=O)n(-c2ccccc2)n1C (stereo not given) | -2 | nt | nt | -1 | 3 | i | -18 | nt
O=C1Cc2cc(S(=O)(=O)N3CCNCC3)ccc2N1 | nt | nt | 18 | 4 | 4 | nt | -27 | nt
S=C1NCN(Cc2ccccc2)CN1 | -20 | -5 | -8 | 4 | 3 | i | 4 | -6
Cc1cc(C)cc(NC(=O)CSc2nnc(Cc3cccn3C)n2-c2ccc(F)cc2)c1 | -18 | -1 | -11 | 2 | 3 | i | 3 | -14
CN(C)c1ccc(/C=C(/NC(=O)c2ccccc2)C(=O)N/N=C/c2ccc([N+](=O)[O-])c(O)c2)cc1 | -20 | -11 | -8 | 8 | -4 | i | 36 | 0
COc1ccc(CNC(=O)C2(C)Cc3c(-c4ccc(C(N)=O)cc4)ccnc3O2)cc1OC (stereo not given) | -7 | nt | nt | 2 | -1 | nt | -11 | nt
Cc1cc(C(=O)N2CCC2(C)C(=O)NS(=O)(=O)c2cccc(OC(F)F)c2)nn1C (stereo not given) | -17 | nt | nt | 5 | 6 | nt | -4 | nt
CC1=CC(C)(C)N(C(=O)Nc2ccccc2)c2ccccc21 | -8 | -5 | -4 | -4 | -3 | i | 2 | 0
CCc1ccc(-n2cc(-c3ccc(F)cc3)[n+]3c2SCCC3)cc1 | -17 | -8 | -8 | -12 | -29 | i | 47 | -3
CC(Oc1ccc(F)cc1)C(=O)Oc1ccc(N(C)S(=O)(=O)c2ccccc2)cc1 (stereo not given) | -15 | nt | -10 | 5 | -2 | i | 2 | nt
CC(=O)c1sc(-c2ccc(F)cc2)cc1NS(=O)(=O)c1ccccc1 | nt | 1 | -10 | 6 | 0 | i | 6 | 2
Cc1nc(N2CCN(C(=O)c3ccco3)CC2)c2oc3ccccc3c2n1 | -5 | -3 | 27 | -1 | 2 | i | nt | 11
CC(C)[C@H](NS(=O)(=O)c1ccccc1)C(=O)OCn1nnc2ccccc2c1=O | nt | -12 | -1 | -1 | 0 | i | nt | -5
O=C(Nc1ccc(S(=O)(=O)N2CCCCC2)cc1)C1CCN(C(=O)c2ccco2)CC1 | 1 | 0 | -6 | 2 | -4 | nt | -5 | -10
CCOc1ccc(N(CC(=O)Nc2ccc(C)cc2)S(=O)(=O)c2c(C)noc2C)cc1 | 0 | -5 | 7 | 3 | -4 | i | -24 | -6
Cc1cc(=O)oc2cc(OCC(=O)OCC(=O)NC(=O)NC(C)C)ccc12 | nt | 0 | -9 | 3 | 6 | i | 7 | 2
COc1ccc(-c2[nH]nc3c2C(c2ccccc2OC(=O)N2CCOCC2)C(C#N)=C(N)O3)cc1 (stereo not given) | 8 | -5 | -11 | 9 | 2 | i | -22 | -2
Cc1ccn2cc(CNC(=O)c3cccs3)nc2c1 | -17 | -1 | -10 | -4 | 2 | i | 31 | -4
O=C(CSc1nncc2ccccc12)N1CCOCC1 | -14 | -6 | -8 | 1 | 1 | i | -8 | 17
O=C(COC(=O)CCS(=O)(=O)c1ccccc1)Nc1cc(S(=O)(=O)N2CCCCC2)ccc1Cl | -12 | nt | -7 | 5 | 7 | i | -12 | nt
COc1cc2c(C(=O)N3CCN(C)CC3)c(CSc3ccccc3)n(C)c2cc1Br | nt | 1.1* | 9 | 1 | 0 | i | nt | 53 | eIF4H FP inh retest=82*;PABP polyA inh retest=46
Cc1ccc(NC(=O)CCNC(=O)c2ccccc2Cl)cc1S(=O)(=O)N(C)C | -11 | 6 | -7 | 6 | 7 | i | -4 | 3
CCCNC(=O)c1ccc(Cl)c(Cl)c1 | nt | 3 | 4 | -5 | -1 | i | 3 | -4

Of the compounds above, these have a Cl atom.
SMILES | Yeast UUG start | eIF4H FP inh | CSC inhib | MT1-MMP act inh | MT1-MMP act inh RFP | Rce1 inhib | Env fusion inh | PABP polyA inh | others
CC(C)CN(CC(C)C)S(=O)(=O)N1CCC(C(=O)NCCc2ccc(Cl)cc2)CC1 | -8 | -9 | nt | 0 | -13 | i | nt | -2
Cc1cc(Cl)c(S(=O)(=O)NCc2ccncc2)cc1OCC(N)=O | -14 | 2 | 0 | 1 | -2 | i | 0 | 10
CC(C)CNc1cc(Cl)c(S(=O)(=O)NCC(C)C)cc1C(=O)O | -2 | -3 | 18 | 7 | 5 | i | nt | 13
CN1CCN(C(=O)C2CC(c3c(F)cccc3Cl)=NO2)CC1 (stereo not given) | -1 | -4 | 0 | 3 | 1 | i | nt | 1
O=C(COC(=O)CCS(=O)(=O)c1ccccc1)Nc1cc(S(=O)(=O)N2CCCCC2)ccc1Cl | -12 | nt | -7 | 5 | 7 | i | -12 | nt
Cc1ccc(NC(=O)CCNC(=O)c2ccccc2Cl)cc1S(=O)(=O)N(C)C | -11 | 6 | -7 | 6 | 7 | i | -4 | 3
CCCNC(=O)c1ccc(Cl)c(Cl)c1 | nt | 3 | 4 | -5 | -1 | i | 3 | -4
